NS1 function inh = blocks influenza NS1 protein function; 270,000 compounds, 0.4% hits; AID 2326; S. cerevisiae slowed by influenza A NS1, growth recovery by OD600; Potency, µM (series often up to 46.1 µM), without a hit: at the top dose activity, positive = more growth; active means well fitted rising curve with a large enough effect; inconclusive means small, poorly fitted or top-dose-only effect; inactive means no such curve, though single readings can be large or run the other way; further: nearly all actives have a fitted effect of over 50% in size
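Compounds were scored for reversing the slow growth caused by influenza A NS1 in S. cerevisiae, measured by optical density at 600 nm. Assay medium contained 2% galactose at pH 6.0; NS1-free yeast of the same strain were the positive control.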
MARV entry inh = Marburg virus entry inhibition; Marburg virus pseudotyped entry inhibition, cell reporter; control for the full effect not named in the record; about a third of the inactives were read at about 46 µM; Potency, µM (titrated, usually from 37.8 µM), for inactives: at the highest dose activity change, negative = inhibition, most hits filed as inhibitors; 300,000 compounds, 1.8% hits; AID 540276; active = well fitted inhibition curve with a large enough effect; inconclusive = small, poorly fitted or top-dose-only effect, or effect the other way; inactive = flat fitted curve, though single readings scatter; tested in HEK293 cells; about a fifth of its hits are not listed in these tables; further: on the % scale 0 is the no-effect control and ±100 the full control effect; luciferase read-out
Cruzain inh Det = blocks cruzain activity in presence of Triton detergent. P25779. purified cruzain, Z-FR-AMC fluorescence, 0.01% Triton. Potency, µM, for the others: max response, negative = inhibition, usual class: inhibitors. 200,000 compounds, 0.43% hits;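 further: plate controls were neutral wells for no effect and buffer without enzyme for full effect; nearly all actives have a fitted effect of over 40% in size; top concentration of the series not given in the record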
Target sequence (P25779 123-467 limits assumed): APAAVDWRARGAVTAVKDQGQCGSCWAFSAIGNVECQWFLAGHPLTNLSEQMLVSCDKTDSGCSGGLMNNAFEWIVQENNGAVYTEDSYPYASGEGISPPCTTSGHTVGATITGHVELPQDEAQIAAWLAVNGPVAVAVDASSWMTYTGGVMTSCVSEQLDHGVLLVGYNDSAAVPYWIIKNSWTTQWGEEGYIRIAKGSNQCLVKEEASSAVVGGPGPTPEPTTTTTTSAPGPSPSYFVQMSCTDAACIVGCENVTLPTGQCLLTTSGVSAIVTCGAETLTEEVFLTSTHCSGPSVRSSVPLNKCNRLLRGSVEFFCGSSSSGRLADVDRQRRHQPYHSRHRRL
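Cysteine protease activity tested under reducing, mildly acidic conditions (100 mM sodium acetate pH 5.5, 5 mM DTT) plus 0.01% Triton X-100. Cruzain 1.5 nM; substrate Z-FR-AMC 2 uM; 15 min compound preincubation at room temperature.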
RE007 growth inh = less growth of the S. pombe RE007 Vpr strain | S. pombe RE007 Vpr strain, BacTiter-Glo ATP luminescence, 24 h; control for the full effect not named in the record | 360,000 compounds, 0.21% hits | Potency, µM (series often up to 92.2 µM), for the others: at the top dose activity change, negative = less growth; active = well fitted falling curve with a large enough effect; inconclusive = small, poorly fitted or top-dose-only effect; inactive = no such curve, though single readings can be large or run the other way;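 further: on the % scale 0 is the no-effect control and ±100 the full control effect; nearly all actives have a fitted effect of over 50% in size; the assay follows cell death caused by Vpr and the record does not say whether a fall means rescue or toxicity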
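Fission yeast strain RE007, carrying one chromosomally integrated HIV-1 vpr copy, was seeded at OD 0.01 in PMG+AL medium with 23 nL pinned compound. After 24 h at 30 °C and 99% humidity, viability was read by BacTiter-Glo luminescence.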
StopGo reporter = lowers the luciferase signal of an FMDV 2A StopGo reporter. human cells with a luciferase reporter of 2A StopGo recoding; control for the full effect not named in the record. Potency, µM (series often up to 57.9 µM), without a hit: at the highest dose signal change, negative = less light. 410,000 compounds, 1.2% hits. AID 1159524; active = well fitted falling curve with a large enough effect; inconclusive = small, poorly fitted or top-dose-only effect; inactive = no such curve, though single readings can be large or run the other way; tested in HEK293T cells; further: on the % scale 0 is the no-effect control and ±100 the full control effect; nearly all actives have a fitted effect of over 45% in size; luciferase light after 4 h
Lassa entry inh = Lassa virus entry inhibition | Potency, µM (top dose mostly 37.9 µM), without a hit: top-dose activity change, negative = inhibition, usual class: inhibitors | Lassa virus pseudotype entry inhibition, cell reporter; control for the full effect not named in the record | 300,000 compounds, 1.2% hits; active means well fitted inhibition curve with a large enough effect; inconclusive means small, poorly fitted or top-dose-only effect, or effect the other way; inactive means flat fitted curve, though single readings scatter; tested in HEK293 cells; further: on the % scale 0 is the no-effect control and ±100 the full control effect; nearly all actives have a fitted effect of over 50% in size; luciferase read-out
Cruzain inh noDet = inhibitors of Trypanosoma cruzi cruzain without detergent; P25779; purified cruzain, Z-FR-AMC fluorescence, no detergent; Potency, µM, for the others: max response, negative = inhibition, actives largely listed as inhibitors; 200,000 compounds, 2.3% hits; AID 1476;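 further: plate controls were enzyme without inhibitor for no effect and buffer without enzyme for full effect; nearly all actives have a fitted effect of over 40% in size; top concentration of the series not given in the record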
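Purified cruzain at 1.5 nM, pre-incubated 15 min with compound at room temperature in 100 mM sodium acetate pH 5.5, 5 mM DTT, 0.00005% Triton X-100. Reaction started with 2 uM Z-FR-AMC; AMC fluorescence increase over 60 s gives rate.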
SARS PLP yeast = SARS-CoV PLP inhibition in yeast; Potency, µM (highest dose often 32.9 µM), for inactives: top-dose activity, positive = growth rescue; AID 485353; 330,000 compounds, 0.19% hits; S. cerevisiae expressing SARS-CoV PLpro, growth rescue; control for the full effect not named in the record; active means well fitted rising curve with a large enough effect; inconclusive means small, poorly fitted or top-dose-only effect; inactive means no such curve, though single readings can be large or run the other way; further: 0% is about no effect; nearly all actives have a fitted effect of over 55% in size; growth read by luminescence after 48 h
* hit, by the source's call; [ ] = dose if it differs, or a comment. Unless noted, the call rests on the fitted dose curve; in most records, active means well fitted curve in the direction sought with a large enough effect; inconclusive means small, poorly fitted or top-dose-only effect, or another doubt; inactive means no such curve, though single readings can be large; an effect the other way counts as inactive or inconclusive. Potency means the concentration at half of the fitted maximal effect.

`CN(NC(=O)c1cccc(Cl)c1)c1nc(-c2ccccc2)nnc1C(F)(F)F` gave NS1 function inh -3%, MARV entry inh -20%[46.1 µM], Cruzain inh Det 0.9%, RE007 growth inh -3%, StopGo reporter inconclusive, Lassa entry inh inconclusive, Cruzain inh noDet -5% and SARS PLP yeast 0%.
Screening Cc1ccc(Nc2nnc(SCC(=O)NC(Cc3c[nH]c4ccccc34)C(=O)O)s2)cc1 (stereo not given) returned NS1 function inh -1%, RE007 growth inh -12%, StopGo reporter -2% and SARS PLP yeast 0%.
For CS(=O)(=O)c1ccc2nnn(OCC(=O)Nc3cccc(C#N)c3)c2c1 the results were NS1 function inh 9%, RE007 growth inh -3%, StopGo reporter -6% and SARS PLP yeast 0%.
For Cn1c(SCc2cccc(F)c2)nnc1-c1cnccn1 the results were NS1 function inh -4%, MARV entry inh inconclusive, RE007 growth inh 2%, StopGo reporter 61%[activator], Lassa entry inh 7% and SARS PLP yeast 0%.
For Cc1ccccc1NC(=O)CSc1nnnn1C the results were NS1 function inh 0%, MARV entry inh -2%, Cruzain inh Det 1.9%, RE007 growth inh 9%, StopGo reporter -13%, Lassa entry inh 2%, Cruzain inh noDet 0% and SARS PLP yeast 4%.
For COc1ccc(CNC(=O)CC23CC4CC(CC(C4)C2)C3)cc1 the results were NS1 function inh -23%, MARV entry inh -4%[46.1 µM], RE007 growth inh 1%, StopGo reporter 14%, Lassa entry inh -13%[46.1 µM] and SARS PLP yeast -2%.
Screening COc1cccc(OCc2nnc(SCC(=O)OC3CCCCC3)n2C)c1 returned NS1 function inh -55%, MARV entry inh 27%, Cruzain inh Det -0.4%, RE007 growth inh -4%, StopGo reporter -10%, Lassa entry inh 13%, Cruzain inh noDet 3% and SARS PLP yeast -1%.
Screening Cc1ccc(C(=O)O)c(C(=O)Nc2nc3ccccc3s2)c1 returned NS1 function inh 9%, RE007 growth inh -14%, StopGo reporter 30% and SARS PLP yeast inconclusive.
For COc1ccc(S(=O)(=O)N2CCCC(N(C)CCc3ccccc3)C2)cc1OC (stereo not given) the results were NS1 function inh 17%, RE007 growth inh 7%, StopGo reporter -12% and SARS PLP yeast -1%.
O=S(=O)(c1ccccc1)N1CCN(c2cccc(Cl)c2)CC1 was read as NS1 function inh -56%, MARV entry inh inconclusive, RE007 growth inh 10%, StopGo reporter -12%, Lassa entry inh inconclusive and SARS PLP yeast -9%.
`Cc1ccc(C)c(NC(=O)C(C)n2c(=O)cc(C(F)(F)F)c3c(C)nn(C)c32)c1` (stereo not given) gave Cruzain inh Det -0.5%, StopGo reporter 0%, Lassa entry inh inconclusive and Cruzain inh noDet -7%.
`CC(=O)c1ccc(N/C=C/C(=O)c2ccc(Br)cc2)cc1` gave NS1 function inh 8%, RE007 growth inh 3%, StopGo reporter 54%[activator] and SARS PLP yeast 7%.
Cn1nnc(NC(=S)NC(=O)Cc2ccccc2)n1 was read as NS1 function inh 1%, MARV entry inh -19%[46.1 µM], RE007 growth inh 1%, StopGo reporter -6%, Lassa entry inh -2%[46.1 µM] and SARS PLP yeast 0%.
`Cc1cc2cc(CN(Cc3cccs3)S(=O)(=O)c3ccc4c(c3)OCCO4)c(=O)[nH]c2cc1C` gave NS1 function inh 3%, MARV entry inh 17%, Cruzain inh Det 4.9%, RE007 growth inh -13%, StopGo reporter -1%, Lassa entry inh 1%, Cruzain inh noDet inconclusive and SARS PLP yeast 13%.
For CC(=O)Nc1ccc(C2Nc3cc(C)c(C)cc3NC3=C2C(=O)CC(C)(C)C3)cc1 (stereo not given) the results were NS1 function inh -20%, RE007 growth inh 3%, StopGo reporter 6% and SARS PLP yeast 3%.
`CCCC(c1nnnn1Cc1ccco1)N1CCN(C(=O)c2ccco2)CC1` (stereo not given) gave NS1 function inh -2%, MARV entry inh 6%, Cruzain inh Det 3.8%, RE007 growth inh -25%, StopGo reporter -13%, Lassa entry inh -11%, Cruzain inh noDet -2% and SARS PLP yeast 2%.
`CC1CCCC(NC(=O)COC(=O)c2cc(S(=O)(=O)N3CCCCC3)ccc2N2CCOCC2)C1C` (stereo not given) gave NS1 function inh 14%, MARV entry inh 7%, Cruzain inh Det 0.0%, RE007 growth inh -6%, StopGo reporter -2%, Lassa entry inh 0%, Cruzain inh noDet inconclusive and SARS PLP yeast 0%.
For CCn1c(SCC(=O)Nc2ccc(OC)cc2)nc2c1c(=O)n(C)c(=O)n2C the results were NS1 function inh 4%, MARV entry inh -19%[46.1 µM], RE007 growth inh -7%, StopGo reporter -16% and SARS PLP yeast -1%.
For O=C(CCn1c(=O)c2sccc2n(Cc2ccccc2F)c1=O)NCc1ccc2c(c1)OCO2 the results were MARV entry inh 3%[46.1 µM], Cruzain inh Det -1.1%, StopGo reporter -13%, Lassa entry inh 6%[46.1 µM] and Cruzain inh noDet -15%.
`C=CCCCCCCCCC(=O)NNC1=CC(=O)CC(C)(C)C1` gave NS1 function inh 24%, MARV entry inh -2%, Cruzain inh Det 0.3%, RE007 growth inh 0%, StopGo reporter inconclusive, Lassa entry inh 11%, Cruzain inh noDet -7% and SARS PLP yeast 3%.
`CC(C1CCN(Cc2nc(C3CC3)no2)CC1)N1CCOCC1` (stereo not given) gave NS1 function inh 0%, RE007 growth inh -13%, StopGo reporter -8% and SARS PLP yeast 20%.
Cc1ccc(C(=O)Nc2cccc(C(=O)NC3CCCCC3)c2)cc1 was read as MARV entry inh 28%[46.1 µM], RE007 growth inh -13%, StopGo reporter -14% and Lassa entry inh -1%[46.1 µM].
Screening C=C(C)CN=c1scc(C)n1/N=C/c1ccco1 returned NS1 function inh -10%, MARV entry inh -3%, Cruzain inh Det -3.1%, RE007 growth inh -14%, StopGo reporter 24%, Lassa entry inh inconclusive, Cruzain inh noDet -8% and SARS PLP yeast inconclusive.
Screening CC(=O)c1ccc(OCc2cc(C(=O)N3CCC(Oc4ccccc4C)CC3)no2)cc1 returned NS1 function inh 16%, RE007 growth inh 1%, StopGo reporter 28% and SARS PLP yeast -5%.
Screening O=C(CN(C(=O)CNS(=O)(=O)c1ccccc1)C1CCCC1)NCc1ccco1 returned NS1 function inh -5%, MARV entry inh 6%, Cruzain inh Det -5.1%, RE007 growth inh 1%, StopGo reporter -8%, Lassa entry inh -19%, Cruzain inh noDet 0% and SARS PLP yeast 3%.
Screening COc1ccc(-c2cc(C(F)(F)F)c3c(=O)n(-c4ccccc4)[nH]c3n2)cc1 returned NS1 function inh 1%, MARV entry inh -3%, Cruzain inh Det -10%, RE007 growth inh 0%[3.69 µM], StopGo reporter -19%, Lassa entry inh -8%, Cruzain inh noDet 12% and SARS PLP yeast 1%.
For COc1ccc(C(OC(=O)c2cccs2)C(=O)NCC2CCCO2)cc1 (stereo not given) the results were NS1 function inh 0%, MARV entry inh -3%, Cruzain inh Det -5.2%, RE007 growth inh 1%, Lassa entry inh 10%, Cruzain inh noDet 5% and SARS PLP yeast 1%.
Screening C/C(N)=C(/C#N)C(=O)COC(=O)Cc1coc2cc(C)ccc12 returned MARV entry inh -6%[46.1 µM], RE007 growth inh -10%, StopGo reporter -8%, Lassa entry inh 1% and SARS PLP yeast 3%.
Cn1c(SCCN2CCCC2)nnc1C1CCN(S(=O)(=O)c2ccc(F)cc2)CC1 was read as NS1 function inh 3%, MARV entry inh -8%[46.1 µM], RE007 growth inh 2%, StopGo reporter 11% and SARS PLP yeast 0%.
`CC(C)CC(C(=O)O)N(Cc1ccccc1)Cc1ccccc1` (stereo not given) gave NS1 function inh 12%, MARV entry inh -21%, Cruzain inh Det 0.1%, RE007 growth inh 6%, StopGo reporter inconclusive, Lassa entry inh 10%, Cruzain inh noDet 7% and SARS PLP yeast -7%.
For Cc1ccc2nc(SCC(=O)Nc3cccc(F)c3)nc(=O)n2c1 the results were MARV entry inh inconclusive, RE007 growth inh 7%, StopGo reporter -13%, Lassa entry inh 16% and SARS PLP yeast 2%.
CC(=O)c1ccc(N2CCN(C(=O)C(=O)c3c(C)[nH]c4ccccc34)CC2)cc1 was read as NS1 function inh 7%, MARV entry inh -16%, RE007 growth inh -4%, StopGo reporter -3%, Lassa entry inh -2% and SARS PLP yeast -4%.
`CN(Cc1ccccc1)C(=O)c1ccc2c(c1)OCCO2` gave NS1 function inh -7%, MARV entry inh 4%, Cruzain inh Det 6.2%, RE007 growth inh -7%, StopGo reporter 60%[activator], Lassa entry inh 17%, Cruzain inh noDet -1% and SARS PLP yeast 10%.
Screening O=C(O)/C=C/C(=O)NNC(=O)c1cccc(Br)c1 returned NS1 function inh -4%, MARV entry inh 24%, Cruzain inh Det 0.1%, RE007 growth inh -6%, StopGo reporter -4%, Lassa entry inh -1%, Cruzain inh noDet -13% and SARS PLP yeast -17%.
`O=C1CC(c2ccc(O)c(O)c2)Oc2c1ccc(O)c2O` (stereo not given) gave NS1 function inh 1%, RE007 growth inh 4%, StopGo reporter 10% and SARS PLP yeast 2%.
For COc1ccc(N2C(=O)c3cccc4cccc(c34)C2=O)nn1 the results were NS1 function inh -2%, MARV entry inh 18%, Cruzain inh Det -8.6%, RE007 growth inh 4%, StopGo reporter 2%, Lassa entry inh -28%, Cruzain inh noDet -3% and SARS PLP yeast -2%.
For O=C(CNC(=O)c1cccs1)NCCN1CCN(c2ccccc2F)CC1 the results were NS1 function inh 2%, MARV entry inh -15%, Cruzain inh Det 11%, RE007 growth inh 9%, Lassa entry inh -1%, Cruzain inh noDet -12% and SARS PLP yeast 5%.
COc1ccc(Nc2nc3ccccc3s2)cc1 was read as NS1 function inh -2%, MARV entry inh inconclusive, RE007 growth inh -11%, StopGo reporter 37%[activator], Lassa entry inh inconclusive and SARS PLP yeast 0%.
Screening CCCC(C)NC(=O)CN1C(=O)NC2(CCc3ccccc32)C1=O (stereo not given) returned NS1 function inh 7%, RE007 growth inh 12%, StopGo reporter -12% and SARS PLP yeast -2%.

Bioassay records from PubChem BioAssay.
